MLL AF4-AF9 inh: inhibitors of human MLL-AF4/AF9 interaction; inhibition, % at 10 µM; AlphaScreen, biotin-AF4 peptide binding to FLAG-AF9; 0.47% of 350,000 active; P42568;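 active = every replicate reaching a set inhibition limit, whatever the replicate mean, cut at about 25% in these data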;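 also: 0% = plate neutral control median and 100% = total signal loss; the record names both 10 and 1 µM as test concentration; the first replicate is given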
Target sequence (P42568 whole entry, looked up): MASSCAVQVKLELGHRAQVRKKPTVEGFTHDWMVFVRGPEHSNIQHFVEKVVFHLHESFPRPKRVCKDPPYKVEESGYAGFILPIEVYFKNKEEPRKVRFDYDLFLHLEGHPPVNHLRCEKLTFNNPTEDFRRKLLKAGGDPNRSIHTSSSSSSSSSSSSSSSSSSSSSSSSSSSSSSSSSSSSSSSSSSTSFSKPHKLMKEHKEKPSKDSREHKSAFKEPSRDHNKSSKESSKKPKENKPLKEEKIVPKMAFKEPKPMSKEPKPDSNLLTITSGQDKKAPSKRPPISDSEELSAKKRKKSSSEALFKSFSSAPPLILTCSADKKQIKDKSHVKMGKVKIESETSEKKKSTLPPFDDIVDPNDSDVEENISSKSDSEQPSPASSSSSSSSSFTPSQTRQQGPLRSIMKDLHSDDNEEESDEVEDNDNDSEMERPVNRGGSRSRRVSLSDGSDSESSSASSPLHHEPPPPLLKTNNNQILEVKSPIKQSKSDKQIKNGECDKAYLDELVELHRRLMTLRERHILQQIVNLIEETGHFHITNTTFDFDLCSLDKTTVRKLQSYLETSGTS
FGF22 binding: shifts melting point of recombinant human FGF22; AID 651658; Q9HCT0; calls only at 9.99 µM; recombinant FGF22 thermal shift, SYPRO orange fluorescence; percent of sucrose octasulfate shift, DMSO zero; 1.5% of 340,000 active;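 active = melting point raised past a set limit in the mean and every replicate; three in four hits are not shown here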
Target sequence (Q9HCT0 whole entry, looked up): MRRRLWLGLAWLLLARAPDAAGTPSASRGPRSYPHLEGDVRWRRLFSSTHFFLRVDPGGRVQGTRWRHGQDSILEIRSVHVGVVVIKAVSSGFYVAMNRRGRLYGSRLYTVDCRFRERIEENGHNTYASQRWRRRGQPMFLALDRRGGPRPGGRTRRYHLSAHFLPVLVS
Numbers without * were called inactive; & = joins results of further samples. The list is partial. The share of hits here may be higher or lower than overall.

`C=CCN1C(=O)[C@]2(O[C@H](CCO)[C@@H]([Si](C)(C)c3ccc(OC)cc3)[C@@H]2C)c2cc(I)ccc21` gave MLL AF4-AF9 inh 2.0 and FGF22 binding inactive.
Screening C[C@]12C=CC(=O)N1CCc1c2[nH]c2ccccc12 returned MLL AF4-AF9 inh 1.7 and FGF22 binding inactive.
For COC(=O)[C@]1(Cc2ccccc2CN=[N+]=[N-])N=C(c2ccc(OCCCO)cc2)O[C@@H]1c1ccccc1 the results were MLL AF4-AF9 inh 2.7 and FGF22 binding inactive.
Screening O=C1O[C@H](c2ccccc2)[C@H](c2ccccc2)N2[C@H]1[C@@H](C(=O)Nc1nc3ccccc3s1)[C@]1(C(=O)Nc3ccc(C#CCCO)cc31)[C@H]2c1ccc(OCCO)cc1 returned MLL AF4-AF9 inh -2.9 and FGF22 binding inactive.
Cc1ccccc1S(=O)(=O)NCC[C@H]1CC[C@H](NC(=O)Nc2cccc(Cl)c2)[C@H](CO)O1 was read as MLL AF4-AF9 inh -0.4 and FGF22 binding inactive.
`COc1ccc([Si](C)(C)[C@H]2[C@H](CCO)O[C@@]3(C(=O)N(Cc4cccc(NC(=O)[C@H](C)O)c4)c4ccccc43)[C@@H]2C)cc1` gave MLL AF4-AF9 inh 9.3 and FGF22 binding active.
Screening Cc1cccc(S(=O)(=O)N2CCCCN3[C@@H](CO)[C@@H](c4ccc(-c5ccccc5)cc4)[C@@H]3C2)c1 returned MLL AF4-AF9 inh -3.8 and FGF22 binding inactive.
For O=C(C1=C[C@@H](c2ccccc2)C[C@@H](OCc2ccc(CO)cc2)O1)N1CCCC1 the results were MLL AF4-AF9 inh -2.4 and FGF22 binding inactive.
For O=C(C1CCCC1)N1CCCCN2[C@H](CO)[C@@H](c3ccc(-c4cccc(F)c4)cc3)[C@H]2C1 the results were MLL AF4-AF9 inh 2.7 and FGF22 binding inactive.
`C=C/C=C/[C@@H]1C(=C)CN2[C@H]1[C@H](Cc1ccccc1)OC(=O)C21CCCC1` gave MLL AF4-AF9 inh 4.8 and FGF22 binding inactive.
COc1ccc([Si](C)(C)[C@H]2[C@H](CCn3cc(CCO)nn3)O[C@@]3(C(=O)N(C)c4ccccc43)[C@@H]2C)cc1 was read as MLL AF4-AF9 inh 1.7 and FGF22 binding inactive.
C[C@H]1CN([C@@H](C)CO)S(=O)(=O)c2ccc(C#CC3CCCCC3)cc2O[C@@H]1CN(C)Cc1cccnc1 was read as MLL AF4-AF9 inh 7.2 and FGF22 binding inactive.
COCCOC(=O)N1C(=O)[C@@]2(c3cc(C#CCCO)ccc31)[C@H](C(N)=O)[C@H]1C(=O)O[C@H](c3ccccc3)[C@H](c3ccccc3)N1[C@@H]2c1ccccc1OCCO was read as MLL AF4-AF9 inh 1.1 and FGF22 binding inactive.
OCCN1CN(c2ccccc2)C(=S)N(c2ccccc2)C1 was read as MLL AF4-AF9 inh -0.9 and FGF22 binding inactive.
CC(C)C[C@@H]1NC(=O)[C@H]2C[C@@H](C(=O)NCc3ccc(F)cc3)[C@@H](c3ccc(O)cc3)N2C1=O was read as MLL AF4-AF9 inh -1.7 and FGF22 binding inactive.
For C[C@H](CO)N1C[C@H](C)[C@H](CN(C)C(=O)Nc2ccccc2)Oc2ncc(C#Cc3ccc(C(F)(F)F)cc3)cc2C1=O the results were MLL AF4-AF9 inh 2.1 and FGF22 binding inactive.
`CC(=O)NCCCC[C@@H]1NC(=O)[C@@H]2C[C@H](C(=O)O)[C@H](c3ccc(O)cc3)N2C1=O` gave MLL AF4-AF9 inh 0.9 and FGF22 binding inactive.
CN(C)CCCCNC(=O)[C@@H]1C[C@@H]2C(=O)N[C@@H](CCCCN(C)C)C(=O)N2[C@@H]1c1ccc(O)cc1 was read as MLL AF4-AF9 inh 7.2 and FGF22 binding inactive.
`CSC1=Nc2ccccc2N=C(N2CCCC2)C1` gave MLL AF4-AF9 inh 0.1 and FGF22 binding inactive.
For COc1cc2c(c3c1c(=O)c1ccccc1n3C)C=CC(C)(C)O2 the results were MLL AF4-AF9 inh -12 and FGF22 binding inactive.

Gathered by group: the entries above with fluorine (3)
For O=C(C1CCCC1)N1CCCCN2[C@H](CO)[C@@H](c3ccc(-c4cccc(F)c4)cc3)[C@H]2C1 the results were MLL AF4-AF9 inh 2.7 and FGF22 binding inactive.
CC(C)C[C@@H]1NC(=O)[C@H]2C[C@@H](C(=O)NCc3ccc(F)cc3)[C@@H](c3ccc(O)cc3)N2C1=O was read as MLL AF4-AF9 inh -1.7 and FGF22 binding inactive.
For C[C@H](CO)N1C[C@H](C)[C@H](CN(C)C(=O)Nc2ccccc2)Oc2ncc(C#Cc3ccc(C(F)(F)F)cc3)cc2C1=O the results were MLL AF4-AF9 inh 2.1 and FGF22 binding inactive.

The main list resumes; the 2 compounds before the break are reprinted first.
`CSC1=Nc2ccccc2N=C(N2CCCC2)C1` gave MLL AF4-AF9 inh 0.1 and FGF22 binding inactive.
For COc1cc2c(c3c1c(=O)c1ccccc1n3C)C=CC(C)(C)O2 the results were MLL AF4-AF9 inh -12 and FGF22 binding inactive.
Screening C=CCOC(=O)[C@@]12O[C@]3(COC[C@H](c4ccccc4)N3C1=O)[C@@H]1C(=O)N(c3ccccc3)C(=O)[C@@H]12 returned MLL AF4-AF9 inh -4.3 and FGF22 binding inactive.
For O=C(NCc1ccc(Cl)cc1)C1=C[C@H](c2coc3ccccc3c2=O)C[C@H](OCCCCO)O1 the results were MLL AF4-AF9 inh -11 and FGF22 binding inactive.
Screening OC[C@@H]1CC[C@@H]2O[C@H](CCc3ccc(C#CCc4ccccc4)cc3)[C@H](n3cc(-c4ccccc4)nn3)C[C@@H]2O1 returned MLL AF4-AF9 inh -1.4 and FGF22 binding inactive.
C=CCOC(=O)[C@H]1[C@@H]2C(=O)O[C@@H](c3ccccc3)[C@@H](c3ccccc3)N2[C@@H](c2ccc(OCCOC(=O)[C@H]3C[C@H]4C(=O)N[C@@H](CC(C)C)C(=O)N4[C@H]3c3cccc(OCCO)c3)cc2)[C@]12C(=O)Nc1ccccc12 was read as MLL AF4-AF9 inh -1.6 and FGF22 binding inactive.
`O=C1C=CCCN1S(=O)(=O)/C=C/c1ccccc1` gave MLL AF4-AF9 inh -11 and FGF22 binding active.
For C=CC[C@@]12N=C(c3ccc(OCCCO)cc3)O[C@@H]1c1ccccc1CN(C(=O)c1ccccc1)C2=O the results were MLL AF4-AF9 inh 3.4 and FGF22 binding inactive.
`CO[C@H]1CN(C)C(=O)c2cc(NC(=O)Cc3ccccc3)ccc2OC[C@@H](C)NC[C@H]1C` gave MLL AF4-AF9 inh -2.8 and FGF22 binding inactive.
For COCC(=O)Nc1ccc2c(c1)C(=O)N(C)[C@H]1CC[C@@H](CC(=O)NCCc3ccncc3)O[C@@H]1CO2 the results were MLL AF4-AF9 inh 1.5 and FGF22 binding inactive.
For CO[C@@H](CN(C)S(=O)(=O)c1cn(C)cn1)[C@@H](C)CN(C(=O)Nc1ccc(C(F)(F)F)cc1)[C@H](C)CO the results were MLL AF4-AF9 inh -1.7 and FGF22 binding inactive.
For COC(=O)[C@@]1(Cc2ccccc2N=[N+]=[N-])COC(c2ccc(OCCCO)cc2)=N1 the results were MLL AF4-AF9 inh 7.7 and FGF22 binding inactive.
For C=CCN1C(=O)[C@]2(O[C@H](CCO)[C@@H]([Si](C)(C)c3ccc(OC)cc3)[C@@H]2C)c2cc(NC(=O)[C@H](C)O)ccc21 the results were MLL AF4-AF9 inh -2.7 and FGF22 binding inactive.
Screening O=S(=O)(c1cccc(F)c1)N1CCN(Cc2cccc(OCCO)c2)CC1 returned MLL AF4-AF9 inh 3.7 and FGF22 binding inactive.
C=CCNC(=O)[C@H]1[C@@H]2C(=O)O[C@@H](c3ccccc3)[C@@H](c3ccccc3)N2[C@@H](c2ccccc2OCCO)[C@]12C(=O)N(C(=O)OCCOC)c1ccccc12 was read as MLL AF4-AF9 inh 0.4 and FGF22 binding inactive.
CC(C)=CCN[C@H](CO)c1ccccc1 was read as MLL AF4-AF9 inh -2.6 and FGF22 binding inactive.
`CCNC(=O)C[C@H]1CC[C@H]2[C@@H](COc3ccc(NC(=O)Nc4ccccc4C)cc3C(=O)N2C)O1` gave MLL AF4-AF9 inh 0.5 and FGF22 binding inactive.
Screening COc1ccc([Si](C)(C)[C@H]2[C@H](CC(=O)N(CCO)Cc3ccccc3)O[C@@]3(C(=O)N(C)c4ccccc43)[C@@H]2C)cc1 returned MLL AF4-AF9 inh 0.9 and FGF22 binding inactive.
Screening CN(C)CCCCNC(=O)[C@@H]1C[C@@H]2C(=O)NCC(=O)N2[C@@H]1c1ccc(O)cc1 returned MLL AF4-AF9 inh 9.5 and FGF22 binding inactive.
`COc1ccccc1C#Cc1ccc([C@@H]2[C@@H](CO)N3CCCCN(C(=O)C4CCCC4)C[C@H]23)cc1` gave MLL AF4-AF9 inh 0.1 and FGF22 binding inactive.
CCO[C@@H]1OC(C(=O)N2CCCC2)=C[C@H](c2ccccc2)[C@H]1CCCO was read as MLL AF4-AF9 inh -2.4 and FGF22 binding inactive.
For O=C(c1cccc(F)c1)N1CCCCN2[C@@H](CO)[C@H](c3ccc(-c4ccc(F)cc4)cc3)[C@@H]2C1 the results were MLL AF4-AF9 inh 5.1 and FGF22 binding inactive.

Reprinted at random: 2 entries already listed
CCO[C@@H]1OC(C(=O)N2CCCC2)=C[C@H](c2ccccc2)[C@H]1CCCO was read as MLL AF4-AF9 inh -2.4 and FGF22 binding inactive.
`CO[C@H]1CN(C)C(=O)c2cc(NC(=O)Cc3ccccc3)ccc2OC[C@@H](C)NC[C@H]1C` gave MLL AF4-AF9 inh -2.8 and FGF22 binding inactive.

By substructure: those above containing a Cl atom.
Cc1ccccc1S(=O)(=O)NCC[C@H]1CC[C@H](NC(=O)Nc2cccc(Cl)c2)[C@H](CO)O1 was read as MLL AF4-AF9 inh -0.4 and FGF22 binding inactive.
For O=C(NCc1ccc(Cl)cc1)C1=C[C@H](c2coc3ccccc3c2=O)C[C@H](OCCCCO)O1 the results were MLL AF4-AF9 inh -11 and FGF22 binding inactive.

(list continues)
Screening C=CCNC(=O)[C@H]1[C@@H]2C(=O)O[C@@H](c3ccccc3)[C@@H](c3ccccc3)N2[C@@H](c2ccc(OCCO)cc2)[C@]12C(=O)Nc1ccccc12 returned MLL AF4-AF9 inh -0.8 and FGF22 binding inactive.
O=S(=O)(c1ccc(F)cc1)N1CCCCN2[C@H](CO)[C@@H](c3ccc(C#CC4CCCC4)cc3)[C@H]2C1 was read as MLL AF4-AF9 inh -1.0 and FGF22 binding inactive.
Screening O=C1O[C@@H](c2ccccc2)[C@@H](c2ccccc2)N2[C@@H](c3ccc(OCCO)cc3)[C@]3(C(=O)Nc4ccc(C#CC5=CCCCC5)cc43)[C@@H](C(=O)NC[C@H](O)c3ccccc3)[C@H]12 returned MLL AF4-AF9 inh -0.3 and FGF22 binding inactive.
Screening Cc1noc(C)c1NC(=O)Nc1cccc2c1O[C@H](CN(C)S(=O)(=O)c1cn(C)cn1)[C@H](C)CN([C@H](C)CO)C2=O returned MLL AF4-AF9 inh -5.5 and FGF22 binding inactive.
Screening COc1ccc([Si](C)(C)[C@@H]2[C@@H](CCO)O[C@]3(C(=O)N(Cc4ccc(N5CCCCC5=O)cc4)c4ccccc43)[C@H]2C)cc1 returned MLL AF4-AF9 inh 2.8 and FGF22 binding inactive.
For COc1ccc(CN2C(=O)[C@@H]3[C@H]4C(=O)O[C@H](c5ccccc5)[C@@H](C)N(C)C(=O)CC/C=C/[C@H]4O[C@@]34C=CCN(Cc3ccccc3)C(=O)[C@@H]24)cc1 the results were MLL AF4-AF9 inh 1.3&-2.3 and FGF22 binding inactive.
For CCCC#Cc1ccc([C@H]2[C@H](CO)N3CCCCN(CC4CC4)C[C@@H]23)cc1 the results were MLL AF4-AF9 inh 8.6 and FGF22 binding inactive.
O=C(C1CCCC1)N1CCCCN2[C@H](C1)[C@@H](c1ccc(C#CC3CC3)cc1)[C@@H]2CO was read as MLL AF4-AF9 inh -6.7 and FGF22 binding inactive.
For COc1ccc([C@H]2C=C(C(=O)N3CCN(Cc4ccc5c(c4)OCO5)CC3)O[C@@H](OCc3ccc(CO)cc3)C2)cc1 the results were MLL AF4-AF9 inh 0.2 and FGF22 binding inactive.
`CC12N=C3SCc4ccccc4CN3[C@H](c3ccccc3O1)[C@H]2CO` gave MLL AF4-AF9 inh 1.9 and FGF22 binding inactive.
O=C(O)C1=C[C@@H](c2ccc3c(c2)Cc2ccccc2-3)C[C@@H](OCc2ccc(CO)cc2)O1 was read as MLL AF4-AF9 inh 0.2 and FGF22 binding inactive.
CC(C)(C)C1=CC(CC(N)=O)(C(C)(C)C)OC1=O (stereo unspecified) was read as MLL AF4-AF9 inh -0.5 and FGF22 binding inactive.
Screening COc1ccc(C(=O)CC2(O)C(=O)N(CN3CCOCC3)c3ccc(Br)cc32)cc1 (stereo unspecified) returned MLL AF4-AF9 inh 1.4 and FGF22 binding inactive.
CC(=O)CC(=O)N1C(=O)N(C)[C@@]2(C)Oc3ccccc3[C@@H]1[C@H]2COC(=O)c1ccc([N+](=O)[O-])cc1 was read as MLL AF4-AF9 inh 17 and FGF22 binding inactive.
For O=C1N[C@@H](Cc2ccccc2)C(=O)N2[C@@H]1C[C@@H](C(=O)NCc1ccc(F)cc1)[C@H]2c1ccc(O)cc1 the results were MLL AF4-AF9 inh 0.9 and FGF22 binding inactive.
`CC1=C([C@H](O)CCc2ccccc2)[C@H](CO)n2c(=O)n(-c3ccccc3)c(=O)n2C1` gave MLL AF4-AF9 inh -2.8 and FGF22 binding inactive.
`CO[C@@H]1CN(C)C(=O)c2ccc(NC(=O)CC(F)(F)F)cc2OC[C@H](C)N(C(=O)C2CCOCC2)C[C@H]1C` gave MLL AF4-AF9 inh -4.2 and FGF22 binding inactive.
